Source: PubChem BioAssay
Ran importin: inhibitors of Ran–importin-beta complex formation, primary screen, biochemical, CFP-Ran/YFP-importin-beta FRET, RCC1, cell-free (AID 434961) | Regulator of chromosome condensation (Homo sapiens) + GTP-binding nuclear protein Ran … | CFP-Ran/YFP-importin-beta FRET, cell-free; active compounds read high | inhibition, % | actives 0.2% (n = 7,700);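 active = more than half of the replicate wells above 15% inhibition; inconclusive = exactly half above it; inactive = fewer than half above it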;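 also: 0% = DMSO wells and 100% inhibition = RanGDP control wells on each plate; stock of unstated strength diluted about 400-fold; mean of two wells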
* marks the source's active call; other numbers are inactive results; ? = inconclusive.

The first two compounds (preview)
| molecule | Ran importin |
| --- | --- |
| C[C@@H]1CN([C@@H](C)CO)C(=O)c2cc(NC(=O)Nc3ccc4c(c3)OCO4)ccc2O[C@@H]1CN(C)C(=O)Nc1ccc2c(c1)OCO2 | 0.7 |
| C[C@@H]1CN([C@@H](C)CO)C(=O)c2cccc(NS(=O)(=O)c3cccs3)c2O[C@H]1CN(C)C(=O)Nc1ccc(C(F)(F)F)cc1 | -3.5 |

This part in full, from the start:
| molecule | Ran importin |
| --- | --- |
| C[C@@H]1CN([C@@H](C)CO)C(=O)c2cc(NC(=O)Nc3ccc4c(c3)OCO4)ccc2O[C@@H]1CN(C)C(=O)Nc1ccc2c(c1)OCO2 | 0.7 |
| C[C@@H]1CN([C@@H](C)CO)C(=O)c2cccc(NS(=O)(=O)c3cccs3)c2O[C@H]1CN(C)C(=O)Nc1ccc(C(F)(F)F)cc1 | -3.5 |
| C[C@H](CO)N1C[C@H](C)[C@@H](CN(C)Cc2ccc(Cl)c(Cl)c2)OCc2cn(nn2)CCCC1=O | 5.3 |
| C[C@H]1CN([C@@H](C)CO)C(=O)c2cccc(NS(=O)(=O)c3cccs3)c2O[C@H]1CN(C)Cc1ccc(C(=O)O)cc1 | -1.1 |
| C[C@@H]1CCCCO[C@H](CN(C)C(=O)CCC(F)(F)F)[C@@H](C)CN([C@@H](C)CO)C(=O)c2cc(NS(=O)(=O)c3ccccc3)ccc2O1 | -0.8 |
| C[C@@H]1CCCCO[C@H](CN(C)Cc2ccncc2)[C@H](C)CN([C@H](C)CO)C(=O)c2cc(N(C)C)ccc2O1 | -6.4 |
| C[C@H](CO)N1C[C@H](C)[C@H](CN(C)Cc2ccncc2)OCCCC[C@H](C)Oc2ccc(NS(C)(=O)=O)cc2C1=O | -3.3 |
| C[C@@H]1CCCCO[C@H](CN(C)S(=O)(=O)c2cccs2)[C@H](C)CN([C@@H](C)CO)C(=O)c2cc(N(C)C)ccc2O1 | 2.5 |
| C[C@H]1CN([C@@H](C)CO)C(=O)Cc2cc(NC(=O)Cn3cnnn3)ccc2O[C@H]1CN(C)C(=O)Nc1ccccc1 | 0.1 |
| C[C@@H]1CN([C@H](C)CO)C(=O)c2cccc(N(C)C)c2O[C@@H]1CN(C)C | -4.3 |
| COc1ccc(S(=O)(=O)Nc2ccc3c(c2)C(=O)N([C@@H](C)CO)C[C@@H](C)[C@@H](CN(C)Cc2ccncc2)O3)cc1 | -3.3 |
| C[C@@H]1CN([C@H](C)CO)C(=O)c2cc(NS(=O)(=O)c3ccccc3)ccc2O[C@@H](C)CCCCO[C@@H]1CN(C)C(=O)c1ccccc1 | -5.3 |
| C[C@@H]1CCCCO[C@@H](CN(C)Cc2ccncc2)[C@H](C)CN([C@H](C)CO)C(=O)c2cc(NS(=O)(=O)c3ccccc3)ccc2O1 | -0.1 |
| Cc1noc(C)c1S(=O)(=O)Nc1ccc2c(c1)CC(=O)N([C@@H](C)CO)C[C@H](C)[C@H](CN(C)C(=O)Nc1ccc(F)cc1)O2 | 2.7 |
| C[C@@H]1CN([C@H](C)CO)C(=O)c2cc(NC(=O)c3ccncc3)ccc2O[C@@H](C)CCCCO[C@@H]1CN(C)S(=O)(=O)c1ccc(F)cc1 | -1.2 |

Pulled by compound from the list above:
| molecule | Ran importin |
| --- | --- |
| C[C@@H]1CN([C@H](C)CO)C(=O)c2cccc(N(C)C)c2O[C@@H]1CN(C)C | -4.3 |
| C[C@H](CO)N1C[C@H](C)[C@H](CN(C)Cc2ccncc2)OCCCC[C@H](C)Oc2ccc(NS(C)(=O)=O)cc2C1=O | -3.3 |
| COc1ccc(S(=O)(=O)Nc2ccc3c(c2)C(=O)N([C@@H](C)CO)C[C@@H](C)[C@@H](CN(C)Cc2ccncc2)O3)cc1 | -3.3 |
| C[C@H]1CN([C@@H](C)CO)C(=O)Cc2cc(NC(=O)Cn3cnnn3)ccc2O[C@H]1CN(C)C(=O)Nc1ccccc1 | 0.1 |

(next part)
| molecule | Ran importin |
| --- | --- |
| C[C@H](CO)N1C[C@H](C)[C@@H](CN(C)C(=O)Nc2ccccc2)Oc2ccc(NC(=O)Cc3ccccc3)cc2C1=O | -2.2 |
| C[C@H]1CN([C@@H](C)CO)C(=O)Cc2cc(NC(=O)Nc3ccc(C(F)(F)F)cc3)ccc2O[C@@H]1CN(C)C(=O)NC1CCCCC1 | -3.7 |
| C[C@@H]1CN([C@H](C)CO)C(=O)c2cccc(NC(=O)Nc3ccc(C(F)(F)F)cc3)c2O[C@H]1CN(C)C(=O)NC1CCCCC1 | -3.9 |
| C[C@@H]1CCCCO[C@H](CN(C)C)[C@H](C)CN([C@@H](C)CO)C(=O)c2cc(NS(C)(=O)=O)ccc2O1 | 0.3 |
| C[C@@H]1CN([C@@H](C)CO)C(=O)c2cccc(N(C)C)c2O[C@@H]1CN(C)C(=O)Nc1ccc(C(F)(F)F)cc1 | -8.0 |
| C[C@H]1CN([C@@H](C)CO)C(=O)Cc2cc(NC(=O)Nc3ccc(F)cc3)ccc2O[C@@H]1CN(C)CC1CC1 | -0.8 |
| CNC[C@H]1Oc2ccc(NC(=O)Cn3cnnn3)cc2CC(=O)N([C@H](C)CO)C[C@@H]1C | -2.3 |
| Cc1noc(C)c1NC(=O)Nc1ccc2c(c1)C(=O)N([C@@H](C)CO)C[C@H](C)[C@@H](CN(C)C)OCCCC[C@H](C)O2 | -5.5 |
| C[C@H]1CN([C@@H](C)CO)C(=O)c2cccc(NS(=O)(=O)c3ccc(Cl)cc3)c2O[C@H]1CN(C)Cc1ccc2c(c1)OCO2 | -1.3 |
| C[C@@H]1CN([C@@H](C)CO)C(=O)c2cccc(NC(=O)c3ccncc3)c2O[C@H]1CN(C)C(=O)Nc1ccccc1 | -5.9 |
| C[C@H]1CN([C@@H](C)CO)C(=O)c2cccc(NC(=O)c3ccncc3)c2O[C@H]1CN(C)Cc1ccc(C(=O)O)cc1 | 1.7 |
| C[C@H](CO)N1C[C@H](C)[C@@H](CN(C)C)Oc2ccc(NC(=O)CCC(F)(F)F)cc2CC1=O | -4.1 |
| Cc1noc(C)c1NC(=O)N(C)C[C@H]1Oc2c(NC(=O)c3ccncc3)cccc2C(=O)N([C@H](C)CO)C[C@@H]1C | 0.4 |
| CC(C)NC(=O)N(C)C[C@H]1OCCCC[C@@H](C)Oc2ccc(NC(=O)CCC(F)(F)F)cc2C(=O)N([C@H](C)CO)C[C@H]1C | 2.1 |
| C[C@@H]1CN([C@@H](C)CO)C(=O)c2cc(N(C)C)ccc2O[C@@H](C)CCCCO[C@@H]1CN(C)S(=O)(=O)c1cccs1 | -1.5 |

(further entries)
| molecule | Ran importin |
| --- | --- |
| COc1ccc(S(=O)(=O)Nc2ccc3c(c2)CC(=O)N([C@H](C)CO)C[C@@H](C)[C@@H](CN(C)Cc2ccc(C(F)(F)F)cc2)O3)cc1 | 5.5 |
| C[C@H](CO)N1C[C@H](C)[C@H](CN(C)C(=O)NC2CCCCC2)Oc2ccc(NC(=O)Nc3cccc4ccccc34)cc2C1=O | 4.0 |
| C[C@H](CO)N1C[C@H](C)[C@@H](CN(C)CC2CC2)Oc2ccc(NC(=O)Cc3ccccc3)cc2CC1=O | 1.2 |
| C[C@@H]1CN([C@H](C)CO)C(=O)CCCn2cc(nn2)CO[C@@H]1CN(C)C(=O)OCc1ccccc1 | 3.2 |
| C[C@@H]1CCCCO[C@H](CN(C)Cc2ccc(C(=O)O)cc2)[C@@H](C)CN([C@@H](C)CO)C(=O)c2cc(NC(=O)C3CCCCC3)ccc2O1 | 0.5 |
| COc1ccc(S(=O)(=O)N(C)C[C@@H]2Oc3ccc(NS(C)(=O)=O)cc3CC(=O)N([C@@H](C)CO)C[C@@H]2C)cc1 | -1.2 |
| COc1ccc(S(=O)(=O)N(C)C[C@H]2Oc3ccc(NC(=O)Nc4ccc5c(c4)OCO5)cc3C(=O)N([C@@H](C)CO)C[C@H]2C)cc1 | 2.5 |
| C[C@H](CO)N1C[C@H](C)[C@@H](CN(C)S(=O)(=O)c2ccc(Oc3ccccc3)nc2)OCc2cn(nn2)CCCC1=O | 1.0 |
| C[C@@H]1CN([C@H](C)CO)C(=O)c2cccc(NC(=O)c3ccc(-c4nccs4)cc3)c2O[C@H]1CN(C)S(=O)(=O)c1cn(C)cn1 | -5.3 |
| C[C@@H]1CCCCO[C@@H](CN(C)Cc2ccccc2)[C@H](C)CN([C@H](C)CO)C(=O)c2cc(NS(C)(=O)=O)ccc2O1 | -4.1 |
| C[C@@H]1CN([C@@H](C)CO)C(=O)c2cc(NS(=O)(=O)c3cccs3)ccc2O[C@@H](C)CCCCO[C@@H]1CN(C)C(=O)CCCN(C)C | 4.8 |
| C[C@H](CO)N1C[C@H](C)[C@H](CN(C)S(=O)(=O)c2cccs2)OCc2cn(nn2)CCCC1=O | 4.6 |
| C[C@H](CO)N1C[C@H](C)[C@H](CN(C)C(=O)NC2CCCCC2)Oc2ccc(NC(=O)Cc3cn(C)c4ccccc34)cc2CC1=O | ? |
| Cc1noc(C)c1NC(=O)N(C)C[C@H]1Oc2ccc(NC(=O)CCN3CCOCC3)cc2CC(=O)N([C@H](C)CO)C[C@H]1C | 9.2 |
| C[C@@H]1CN([C@H](C)CO)C(=O)c2cc(NS(C)(=O)=O)ccc2O[C@@H](C)CCCCO[C@@H]1CN(C)Cc1ccccc1 | -4.5 |

Further compounds follow.
| molecule | Ran importin |
| --- | --- |
| Cc1noc(C)c1NC(=O)Nc1ccc2c(c1)CC(=O)N([C@@H](C)CO)C[C@@H](C)[C@H](CN(C)C)O2 | 5.1 |
| CC(C)NC(=O)N(C)C[C@@H]1Oc2ccc(NC(=O)C3CC3)cc2CC(=O)N([C@H](C)CO)C[C@H]1C | 0.3 |
| C[C@@H]1CN([C@@H](C)CO)C(=O)c2cc(NC(=O)CCCN(C)C)ccc2O[C@H]1CN(C)C(=O)Nc1ccc2c(c1)OCO2 | -2.0 |
| COc1ccc(CN(C)C[C@H]2Oc3ccc(NC(=O)Nc4ccc(F)cc4)cc3C(=O)N([C@H](C)CO)C[C@H]2C)cc1 | 0.1 |
| C[C@H](CO)N1C[C@H](C)[C@H](CN(C)C(=O)NC2CCCCC2)Oc2c(NC(=O)c3ccc(-c4nccs4)cc3)cccc2C1=O | -0.1 |
| C[C@@H]1CN([C@@H](C)CO)C(=O)c2cccc(NS(=O)(=O)c3ccccc3)c2O[C@@H]1CN(C)C(=O)Nc1cccc2ccccc12 | -0.6 |
| COc1ccc(S(=O)(=O)Nc2ccc3c(c2)C(=O)N([C@@H](C)CO)C[C@H](C)[C@H](CN(C)S(=O)(=O)c2cccs2)O3)cc1 | -0.6 |
| C[C@H]1CN([C@@H](C)CO)C(=O)c2cccc(NC(=O)NC3CCCCC3)c2O[C@@H]1CN(C)C(=O)Nc1cccc2ccccc12 | -1.4 |
| COc1ccc(S(=O)(=O)N(C)C[C@@H]2Oc3c(NC(=O)Nc4cccc5ccccc45)cccc3C(=O)N([C@@H](C)CO)C[C@@H]2C)cc1 | -4.1 |
| C[C@@H]1CCCCO[C@H](CN(C)Cc2ccc3c(c2)OCO3)[C@@H](C)CN([C@@H](C)CO)C(=O)c2cc(NS(=O)(=O)c3ccccc3)ccc2O1 | -1.6 |
| C[C@@H]1CCCCO[C@H](CN(C)C(=O)Nc2ccccc2)[C@H](C)CN([C@@H](C)CO)C(=O)c2cc(NS(C)(=O)=O)ccc2O1 | ? |
| CNC[C@H]1Oc2ccc(NS(=O)(=O)c3ccccc3)cc2C(=O)N([C@H](C)CO)C[C@@H]1C | 5.7 |
| COc1ccc(S(=O)(=O)N(C)C[C@H]2Oc3c(NS(C)(=O)=O)cccc3C(=O)N([C@H](C)CO)C[C@H]2C)cc1 | ? |
| COc1ccc(S(=O)(=O)N(C)C[C@H]2Oc3ccc(NC(=O)CCC(F)(F)F)cc3C(=O)N([C@@H](C)CO)C[C@@H]2C)cc1 | 2.9 |
| COc1ccc(S(=O)(=O)N(C)C[C@H]2Oc3ccc(NC(=O)CCCN(C)C)cc3CC(=O)N([C@@H](C)CO)C[C@@H]2C)cc1 | 7.7 |

(more compounds)
| molecule | Ran importin |
| --- | --- |
| CNC[C@@H]1Oc2ccc(NS(C)(=O)=O)cc2CC(=O)N([C@H](C)CO)C[C@H]1C | -7.3 |
| C[C@H]1CN([C@@H](C)CO)C(=O)c2cc(NC(=O)Cc3ccccc3)ccc2O[C@H]1CN(C)C(=O)NC1CCCCC1 | ? |
| CNC[C@H]1OCCCC[C@H](C)Oc2ccc(NS(=O)(=O)c3ccccc3)cc2C(=O)N([C@@H](C)CO)C[C@H]1C | 6.3 |
| C[C@H]1CN([C@@H](C)CO)C(=O)c2cc(NS(C)(=O)=O)ccc2O[C@@H]1CN(C)C(=O)Nc1ccc2c(c1)OCO2 | -2.0 |
| C[C@@H]1CN([C@@H](C)CO)C(=O)c2cccc(NC(=O)NC3CCCCC3)c2O[C@@H]1CN(C)Cc1ccncc1 | 9.7 |
| COc1ccc(CN(C)C[C@H]2Oc3ccc(NC(=O)Nc4ccc(C(F)(F)F)cc4)cc3CC(=O)N([C@@H](C)CO)C[C@@H]2C)cc1 | 1.4 |
| Cc1cc(C(=O)Nc2cccc3c2O[C@H](CN(C)C(=O)Nc2ccccc2)[C@H](C)CN([C@@H](C)CO)C3=O)n(C)n1 | -1.6 |
| Cc1noc(C)c1S(=O)(=O)Nc1ccc2c(c1)C(=O)N([C@H](C)CO)C[C@H](C)[C@H](CN(C)C(=O)Nc1ccccc1)OCCCC[C@@H](C)O2 | -0.5 |
| C[C@H](CO)N1C[C@H](C)[C@@H](CN(C)C)Oc2ccc(NC(=O)CCC(F)(F)F)cc2C1=O | -4.8 |
| C[C@@H]1CN([C@H](C)CO)C(=O)c2cc(NS(C)(=O)=O)ccc2O[C@@H](C)CCCCO[C@@H]1CN(C)S(=O)(=O)c1cccs1 | -1.4 |
| C[C@@H]1CN([C@@H](C)CO)C(=O)Cc2cc(NC(=O)Nc3ccccc3)ccc2O[C@@H]1CN(C)C(=O)NC1CCCCC1 | ? |
| Cc1noc(C)c1NC(=O)Nc1ccc2c(c1)C(=O)N([C@@H](C)CO)C[C@H](C)[C@H](CN(C)C(=O)NC(C)C)OCCCC[C@H](C)O2 | 6.0 |
| C[C@H](CO)N1C[C@H](C)[C@H](CN(C)Cc2ccc3c(c2)OCO3)Oc2c(NS(=O)(=O)c3cn(C)cn3)cccc2C1=O | -1.4 |

Only part of the results is shown. The share of hits here may be higher or lower than overall.
